# CtBP-E1A inh = CtBP/E1A binding inhibition. AlphaScreen GST-E1A/His-CtBP binding, 1536-well; hits give low values; control for the full effect not named in the record. activity change, % (no concentration beside the values). 0.49% of 340,000 active; in the data active means activity change below about -65%; inconclusive means about -30% to -65%; inactive means above about -30%; also: compound concentration not given in the record
#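 Protein mix (5X: 125 nM each GST-E1A, His-CtBP) was incubated with pinned compound 2 h at 37 deg C in dark, in 50 mM Tris pH 8.0 buffer with 300 mM NaCl. Glutathione donor and nickel acceptor beads followed; AlphaScreen signal read after 1 h.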
# Six1-Eya2 inh = blocks human Six1 binding to Eya2; Q15475+O00167; AlphaScreen GST-Six1/His-Eya2 binding, biochemical; hits give low values; control for the full effect not named in the record; activity change, % (no concentration beside the values); 0.56% of 360,000 active; in the data active = activity change below about -65%; inconclusive = about -30% to -65%; inactive = above about -30%; also: compound concentration not given in the record
# Target sequence (O00167 whole entry, looked up): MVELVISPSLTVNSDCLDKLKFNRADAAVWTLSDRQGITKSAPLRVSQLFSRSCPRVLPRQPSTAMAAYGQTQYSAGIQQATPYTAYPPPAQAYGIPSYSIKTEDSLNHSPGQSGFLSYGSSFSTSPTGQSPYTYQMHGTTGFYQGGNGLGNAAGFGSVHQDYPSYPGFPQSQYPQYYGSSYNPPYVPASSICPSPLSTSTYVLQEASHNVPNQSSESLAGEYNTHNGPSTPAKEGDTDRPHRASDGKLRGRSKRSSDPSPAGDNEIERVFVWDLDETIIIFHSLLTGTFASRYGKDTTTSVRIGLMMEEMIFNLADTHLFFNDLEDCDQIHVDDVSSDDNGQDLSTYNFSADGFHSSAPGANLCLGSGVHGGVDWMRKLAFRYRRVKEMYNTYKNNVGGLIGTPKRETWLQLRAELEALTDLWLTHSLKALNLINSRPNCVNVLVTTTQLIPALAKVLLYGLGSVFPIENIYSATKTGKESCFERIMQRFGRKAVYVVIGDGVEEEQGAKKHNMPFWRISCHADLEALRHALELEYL
# Target sequence (Q15475 whole entry, looked up): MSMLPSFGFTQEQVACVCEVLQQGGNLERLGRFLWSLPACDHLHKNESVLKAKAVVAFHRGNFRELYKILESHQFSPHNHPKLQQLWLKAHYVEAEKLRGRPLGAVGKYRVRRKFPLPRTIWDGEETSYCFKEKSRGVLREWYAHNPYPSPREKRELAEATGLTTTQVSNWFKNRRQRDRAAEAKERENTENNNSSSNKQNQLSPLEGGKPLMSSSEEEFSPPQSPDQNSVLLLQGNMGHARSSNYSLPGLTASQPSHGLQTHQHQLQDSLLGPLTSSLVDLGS
#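 Six1/Eya2 binding was read as AlphaScreen signal after compounds were pinned into GST-Six1 plus His-tagged Eya2 (5X stock 250/500 nM) in pH 8.0 Tris/NaCl/TCEP buffer, beads added, then incubated 1 h, 37 C, dark.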
# Numbers without * were called inactive; ? = inconclusive. % is scaled to controls: 0 for no effect and ±100 for the full control effect. The list is partial; count on the stated rates, not on these rows.
structure,CtBP-E1A inh,Six1-Eya2 inh
Cc1ccc(S(=O)(=O)N2[C@@H](CO)CO[C@H]2CC(=O)c2cccc3ccccc23)cc1,2.9,-5.6
COC(=O)C[C@@H]1CC[C@H](NC(=O)Cc2ccccn2)[C@@H](CO)O1,-7.6,9.4
COC(=O)C[C@@H]1C=C[C@@H](NC(=O)c2ccccc2F)[C@@H](CO)O1,-4.1,-6.6
COc1ccc(CN2C(=O)CCC2(C)c2nnnn2C2CCCCC2)cc1 (stereo not given),-7.3,6.8
Cc1cccc(C)c1NC(=O)C1C(c2ccc3c(c2)OCO3)=Nc2ccccc2N1C(=O)c1ccccc1 (stereo not given),-6.4,-1.8
COC(=O)C1=CN(c2ccc(OC)cc2)C(N)=C(C#N)C1c1cccc2ccccc12 (stereo not given),2.6,-8.2
CC(C)C[C@@H](CN1CCC[C@H]1CN1C(=O)C(=O)NC[C@@H]1Cc1ccccc1)N1C[C@H](Cc2ccc(O)cc2)N(CC2CCCCC2)C(=O)C1=O,-1.1,-12.1
O=C(NCCO)OC1CC2CC1[C@H]1CCCCN1C2=O (stereo not given in full),4.9,1.0
Cc1cc(N2CCN(C(C(=O)NC3CCCC3)C(C)(C)C)CC2)c2ccccc2n1 (stereo not given),-1.1,-0.8
CCCCC[C@@H](C)N1C[C@H](COCc2ccccc2)Oc2cc(N3CCC[C@@H]3COC)ccc2S1(=O)=O,3.5,-3.7
O=c1[nH]c(=S)[nH]c2c1[C@H](CCc1cccc(Cl)c1)O[C@H](C1CC1)C2,-4.6,-11.1
CCCCCc1c(-c2ccccc2)ncn1CCc1ccccc1OC,-0.5,-10.1
CC(=O)C[C@H]1SC[C@@H](C(C)C)N1S(=O)(=O)c1ccc(C)cc1,-0.8,12.5
C[C@@H]1COc2cccc(N3CCC[C@H]3CO)c2S(=O)(=O)N1,3.5,-0.8
O=C(Nc1ccc2ccccc2c1)C(c1ccccc1)n1c(=O)c(-c2cc3ccccc3[nH]2)nc2ccccc21 (stereo not given),20.1,33.3
Cc1nc(NC(=O)c2ccccc2)sc1-c1cc(C(=O)NCCO)nn1Cc1ccccc1,3.2,-3.8
COC(=O)C[C@H]1CC[C@@H](NC(=O)Nc2ccc3c(c2)OCO3)[C@@H](CO)O1,-9.5,40.7
COC(=O)c1cn(-c2nc3ccccc3s2)nn1,-0.5,0.8
CCOC(=O)[C@]12CCCC=C1N(Cc1ccccc1)C(=O)[C@H](CC(=O)NCc1cccc(C(F)(F)F)c1)C2,5.8,5.7
COc1ccc(C2=Nc3ccccc3N(C(=O)c3ccc(C(F)(F)F)cc3)C2C(=O)Nc2ccc3c(c2)OCCO3)cc1 (stereo not given),-7.7,-16.6
O=C1c2ccccc2C(c2nnnn2Cc2ccccc2)N1Cc1cccnc1 (stereo not given),4.7,13.3
CCCCNC(=O)C[C@@H]1C[C@@]2(C(=O)OCC)CCCC=C2N(Cc2ccc(Cl)cc2Cl)C1=O,4.3,5.2
COC(=O)CC1N(S(=O)(=O)c2ccc(C)cc2)c2ccccc2C1(C(=O)OC)C(=O)OC (stereo not given),3.6,-0.5
Cc1cccc(C)c1NC(=O)C1(C)CSCC(=O)N1CCCN1CCOCC1 (stereo not given),-16.9,11.0
COc1ccc(CN2C(=O)COc3ccccc3C2c2nc3ccccc3[nH]2)cc1 (stereo not given),6.7,0.3

# (further entries)
structure,CtBP-E1A inh,Six1-Eya2 inh
CC(C)OC1=CC(=O)OC(c2cccc(Cl)c2)C1 (stereo not given),1.8,2.7
CCCCNC(=O)C1c2ccccc2OCC(=O)N1CCOC (stereo not given),3.7,4.0
CCCCN1C(=O)C(CC(=O)NCc2cccc3ccccc23)CC(C(=O)N(C(C)C)C(C)C)=C1C (stereo not given),6.1,-7.6
COC(=O)c1ccc2nc(-c3ccc(C#N)cc3)c(Cc3cccc(Cl)c3)n2c1,3.4,-1.9
CC1(C)OC(=O)C2=C(C[C@@H](C3CCCC3)O[C@H]2c2ccc(Cl)cc2)O1,-5.2,11.0
CC(C(=O)NCc1ccccc1)n1c(CSCCOc2ccccc2)nc2ccccc21 (stereo not given),-2.8,10.4
CC(C)C[C@@H](CN1CCC[C@H]1CN1C(=O)C(=O)NC[C@@H]1Cc1ccc(O)cc1)N1C[C@H](Cc2ccc(O)cc2)N(CCc2ccccc2)C(=O)C1=O,0.3,-5.6
Cc1cccc(C)c1NC(=O)C1(C)CSCC(=O)N1CCCn1ccnc1 (stereo not given),-13.8,9.2
CCOC(=O)C(Cc1ccccc1)C1(C)Oc2ccccc2O1 (stereo not given),-6.6,62.5
Cc1cccc(C)c1-n1nnnc1C1(C)CCC(=O)N1CCCN1CCOCC1 (stereo not given),1.8,-2.4
Cc1cc(Br)c2c(c1)[C@](O)(c1cn(C)c3ccccc13)C(=O)N2C,5.5,-9.6
O=S1(=O)CC(N2CCN(CCO)CC2)CN1Cc1cn(Cc2cccc(C(F)(F)F)c2)nn1 (stereo not given),8.6,-2.2
Cc1cccc(C)c1NC(=O)C1(C)CN(S(C)(=O)=O)CC(=O)N1CCCN1CCOCC1 (stereo not given),-6.1,9.4
COc1cccc(CNC(=O)[C@@H]2CCCN2C(=O)[C@@H]2CCCN2C(=O)OC(C)(C)C)c1,4.2,-3.6
O=C1Nc2ccccc2-c2nnnn2C1N1CCC(Cc2ccccc2)CC1 (stereo not given),-0.6,-3.2
C[C@@H]1O[C@H](C2CCCC2)CC2=C1C(=O)OC(C)(C)O2,8.8,-1.8
Nc1nc2ncccc2cc1C(=O)NC1CCCCC1,0.2,0.1
COc1cc(CNC(=O)OC2CC3CC2[C@H]2CCCCN2C3=O)cc(OC)c1 (stereo not given in full),3.8,-6.7
CC(C)(C)NC(=O)C(c1ccccc1)n1c(=O)c(-c2ccccc2)nc2ccccc21 (stereo not given),3.5,8.8
O=C1NC[C@H](CCCCN2CCN(Cc3ccccc3)C(=O)C2=O)N(Cc2ccccc2)C1=O,-2.6,-5.4
CCN(CC)CCN(C)C(c1cc2ccccc2o1)c1nnnn1C(C)(C)C (stereo not given),4.6,-2.8
CC(C)C[C@@H](CN1CCC[C@H]1CN1C(=O)C(=O)NC[C@@H]1Cc1ccccc1)N1C[C@H](Cc2ccccc2)N(CCc2ccccc2)C(=O)C1=O,-0.7,1.3
COC(=O)C[C@@H]1C=C[C@H](NS(=O)(=O)c2cccc(F)c2)[C@@H](CO)O1,9.4,2.9
CCCCNC(=O)c1nc(C2CCNCC2)oc1-c1cccc(C(F)(F)F)c1,2.6,-12.0
CN1CCN(C2CN(Cc3cn(Cc4ccc(F)cc4)nn3)S(=O)(=O)C2)CC1 (stereo not given),-1.7,7.3

# Some of these compounds in order of the Six1-Eya2 inh value, high to low.
SMILES	CtBP-E1A inh	Six1-Eya2 inh
Cc1cccc(C)c1NC(=O)C1(C)CN(S(C)(=O)=O)CC(=O)N1CCCN1CCOCC1 (stereo not given)	-6.1	9.4
Cc1cccc(C)c1NC(=O)C1(C)CSCC(=O)N1CCCn1ccnc1 (stereo not given)	-13.8	9.2
CN1CCN(C2CN(Cc3cn(Cc4ccc(F)cc4)nn3)S(=O)(=O)C2)CC1 (stereo not given)	-1.7	7.3
CCCCNC(=O)C1c2ccccc2OCC(=O)N1CCOC (stereo not given)	3.7	4.0
CC(C)C[C@@H](CN1CCC[C@H]1CN1C(=O)C(=O)NC[C@@H]1Cc1ccccc1)N1C[C@H](Cc2ccccc2)N(CCc2ccccc2)C(=O)C1=O	-0.7	1.3

# Next part.
structure,CtBP-E1A inh,Six1-Eya2 inh
CCCNC(=O)N1C[C@H](O)COC[C@@H]2O[C@@H](CC(=O)NCCCN3CCOCC3)CC[C@H]21,8.1,2.8
COC(=O)[C@@]12C[C@@H](CC(=O)N3CCN(C(=O)C4CC4)CC3)C(=O)N(Cc3ccccc3)C1=CCC(C)(C)C2,0.0,-1.3
O=C(N[C@H]1C=C[C@H](CC(=O)N2CCCCC2)O[C@@H]1CO)c1cccc(F)c1,8.0,2.1
Cc1ccc(S(=O)(=O)N2C(c3cccc(Cl)c3)CC=C(C(=O)O)C2c2cccc(Cl)c2)cc1 (stereo not given),0.7,-4.0
N#CC1C(=O)NC(=O)C(C#N)C12CCCCC2 (stereo not given),3.3,12.8
COc1ccc(-c2c(C(=O)c3ccc(Br)cc3)[nH]c(N)c2C(=O)c2ccccc2)cc1OC,-2.4,-17.3
CN1CCN(C(=O)C[C@H]2CC[C@H]3[C@@H](COC[C@@H](O)CN3Cc3cccc(F)c3)O2)CC1,-3.0,2.4
O=C1NC[C@H](CCCCN2C[C@H](Cc3ccc(O)cc3)N(Cc3ccccc3)C(=O)C2=O)N(Cc2ccccc2)C1=O,-1.3,3.0
O=C(C(O)c1ccccc1)N1CCN(S(=O)(=O)c2ccc(C(F)(F)F)cc2)CC1 (stereo not given),0.8,-1.7
CCOC(=O)[C@]12CCCC=C1N(Cc1ccc3c(c1)OCO3)C(=O)[C@H](CC(=O)NCCc1ccccc1OC)C2,-3.3,-6.6
COC(=O)C[C@H]1CC[C@@H](NC(=O)Nc2cccc(OC)c2)[C@@H](CO)O1,7.2,-0.8
CC1(C(=O)Nc2ccc3c(c2)OCCO3)CSCC(=O)N1C1CCN(Cc2ccccc2)CC1 (stereo not given),2.7,-13.8
CC(C)C(C(=O)NCc1ccccc1)N(C)Cc1ccc(Cl)c(Cl)c1 (stereo not given),-4.6,7.0
O=C(NCc1ccccc1)C(c1ccc(C(F)(F)F)cc1)N1CCN(CCN2CCOCC2)CC1 (stereo not given),-1.8,-5.1
CCCCn1nnnc1C(c1cc2ccccc2o1)N1CCN(CC(=O)NC(C)C)CC1 (stereo not given),-5.9,1.3
CC(C)(C)C(C(=O)NCc1ccccc1)N1CCN(CCN2CCOCC2)CC1 (stereo not given),0.0,10.3
Cc1cnc(-c2nc3ccccc3n2C(C(=O)NC(C)(C)C)c2ccncc2)cn1 (stereo not given),-7.3,-22.4
Cc1cccc(C)c1NC(=O)C(c1ccccc1F)n1c(=O)c(-c2cc3ccccc3[nH]2)nc2ccccc21 (stereo not given),21.6,33.9
CC(C)CCN1C(=O)CSCC1(C)C(=O)Nc1ccc2c(c1)OCCO2 (stereo not given),-1.5,1.8
COc1ccc(NC(=O)C(c2cc3ccccc3o2)n2c(=O)c(-c3cc4ccccc4[nH]3)nc3ccccc32)cc1 (stereo not given),23.0,33.7
Nc1sc(-c2ccccc2)cc1C(=O)N1CCN(c2ccccc2)CC1,?,-26.3
O=C(C[C@H]1CC[C@@H](NC(=O)Nc2ccc3c(c2)OCO3)[C@@H](CO)O1)NCc1ccccc1,5.2,-1.8
COc1cccc(C(=O)N2CCC[C@H]2C(=O)N2CCC[C@H]2C(=O)N[C@@H](C)c2ccccc2)c1,7.1,6.4
CCC(=O)N1Cc2cc(C(=O)NCc3cccc(F)c3)nc(-c3cccc(C4=CCCC4)c3)c2[C@H]1CCO,-2.9,1.7
CCCCOCCCNC(=O)C[C@@H]1C[C@@]2(C(=O)OCC)CCCC=C2N(CCc2ccc(OC)c(OC)c2)C1=O,-5.7,-18.9

# Further compounds:
structure,CtBP-E1A inh,Six1-Eya2 inh
COC(=O)C1(C(=O)OC)C[C@H](c2ccc(OC)cc2)N(Cc2ccccc2OC)[C@@H]1c1ccccc1,-18.7,-1.1
CCC(C)CN1C(=O)CSCC1(C)C(=O)Nc1ccc2c(c1)OCCO2 (stereo not given),-0.9,-0.2
COc1ccc(C=O)c(-c2c(CCO)sc3ccccc23)c1,10.9,11.3
Cc1ccc(-c2nc3c(Cl)cc(C(F)(F)F)cn3c2Cc2ccsc2)cc1,6.0,7.7
COC(=O)[C@]12CCCCC=C1N(Cc1ccco1)C(=O)[C@H](CC(=O)N1CCOCC1)C2,1.1,0.1
CCOC(=O)[C@]12CCC=C1N(Cc1ccco1)C(=O)[C@H](CC(=O)NCCC(C)C)C2,-7.1,-1.5
CCCCn1nnnc1C1(C)CCC(=O)N1Cc1ccc(F)cc1 (stereo not given),-0.3,5.1
CCCCCCCCN1C(=O)[C@H](CC(=O)NCc2cccc(C(F)(F)F)c2)C[C@@]2(C(=O)OCC)CCC=C12,7.5,-0.9
Cc1csc(-c2nc3ccccc3n2C(C)c2nc3ccccc3[nH]2)c1 (stereo not given),5.9,-0.9
COc1ccc(C(=O)C(=O)N2CCN(c3ccccc3F)CC2)cc1,-4.2,8.4
C/C=C/c1cccc(-c2nc(C(=O)N3CCOCC3)cc3c2[C@H](CCO)N(C(=O)NC(C)C)C3)c1,2.0,-0.1
CN(C)C(=O)C[C@@H]1CC[C@@H](NC(=O)C2CCC2)[C@@H](CO)O1,-0.1,2.2
CCOc1ccc(CCN2C(=O)C(=O)N([C@@H](Cc3ccc(O)cc3)CN3CCC[C@H]3CN3C(=O)C(=O)NC[C@@H]3CC(C)C)C[C@@H]2Cc2ccccc2)cc1,-0.7,6.5
COc1ccc(C(=O)C(=O)N2CCC(Cc3ccccc3)CC2)cc1OC,0.0,4.0
CCOc1cc(OCC)cc(C(=O)N2CCC[C@H]2C(=O)N2CCC[C@H]2C(=O)N(C)Cc2ccccc2)c1,8.7,0.3
Cc1cc2c(cc1C)-n1nnnc1C(N(C)Cc1ccccc1)C(=O)N2 (stereo not given),-0.5,-8.6
CCCCNC(=O)C1c2ccccc2OCC(=O)N1Cc1ccccn1 (stereo not given),-3.8,-3.0
